Screening results deposited in PubChem BioAssay by ICCB-Longwood Screening Facility, Harvard Medical School.
GIV Gai3 FP – GIV-Galpha-i interaction inhibition; Galpha-i3/FITC-GIV peptide fluorescence polarization, 90 min; hits give low values; scaled: aluminum fluoride 0%, vehicle 100%; percent of control (FP), % (test concentration not listed); 0.42% of 210,000 active;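 active means replicate mean at 85% of control or lower, very high polarization wells dropped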;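 further: wells of about 15 µL received 100 nL stock; the first replicate is given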
Target sequence (P08753 whole entry, looked up): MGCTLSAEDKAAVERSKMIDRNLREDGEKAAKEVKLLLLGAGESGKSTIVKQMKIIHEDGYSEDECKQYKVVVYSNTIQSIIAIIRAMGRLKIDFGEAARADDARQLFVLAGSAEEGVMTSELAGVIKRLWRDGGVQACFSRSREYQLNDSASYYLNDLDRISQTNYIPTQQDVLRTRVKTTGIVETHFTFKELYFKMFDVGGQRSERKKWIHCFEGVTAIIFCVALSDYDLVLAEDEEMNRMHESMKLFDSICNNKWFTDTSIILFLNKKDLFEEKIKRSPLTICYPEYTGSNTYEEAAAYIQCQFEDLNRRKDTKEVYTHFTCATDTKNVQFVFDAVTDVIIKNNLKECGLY
HCMV NEC inh – inhibitors of HCMV UL50-UL53 nuclear egress complex interaction; HTRF UL50-UL53 interaction, normalized percent inhibition; inhibition, % (no concentration beside the values); 0.15% of 190,000 active;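 active means both replicates at 50% or more, plus weaker picks with an unusually low signal ratio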;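 further: stock transfer was 100 nL into about 20 µL; 0% = negative control wells and 100% = wells with untagged competitor protein; inactives centre near -12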
Sa growth inh – blocks Staphylococcus aureus growth | relative growth, % (no concentration beside the values) | S. aureus RN4220 growth, OD600, 20 h, 42 °C; hits give low values | 0.53% of 170,000 active;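 active means growth at 42 °C up to 50% and 20 or more points under that at 30 °C, or under 10% at both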;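 further: 300 nL library stock went into each well; scaled to the means of positive and negative controls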
Sa growth inh second temp – also measured in Sa growth inh; calls as there; relative growth, %; measured here: growth at 30 °C;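 optical density after 20 h as mean of two plates; 100% = untreated growth and lower means inhibition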
Active calls of the source: *; x = not tested or not shown; & = joins results of further samples. Not a hit list; about 0.8% have a hit in one of these screens.

SMILES	GIV Gai3 FP	HCMV NEC inh	Sa growth inh	Sa growth inh second temp
Cc1nc2nc(C)c(NS(=O)(=O)c3ccc(F)cc3)c(=O)n2[nH]1	105	-10	120	94
O=C(CCCn1c(=O)c2cccn2c2ccc(Br)cc21)NC1CC1	104	-9	x	x
COCCCNC(=O)CSc1nnc(-c2cc3ccccc3n2-c2ccccc2)o1	99	-16	x	x
CC(C)(C)S(=O)(=O)c1ccc(NCCc2ccc(S(N)(=O)=O)cc2)nn1	101	11	x	x
Cc1cc(C)n2c(Nc3ccccc3)c(-c3ccccc3)nc2n1	102	-13	102	79
CCOC(=O)N1CCN(C(=O)COC(=O)c2cccc(S(C)(=O)=O)c2)CC1	x	-17	97	91
CCN(C(=O)c1c(N)cnn1C)c1ccccc1	102	-15	86	85
Cn1c(=O)c2c(SCC(=O)NCc3ccc(F)cc3)nc(-c3ccccc3Cl)nc2n(C)c1=O	97	x	99	93
O=C(Nc1ccc(-c2noc(CCc3ccccc3)n2)cc1)c1cccnc1	x	2	103	67
COC(=O)c1cc(Nc2ncnc3c2nc2n3CCCCC2)cc(C(=O)OC)c1	101&98	-14&-43	93	87
O=C(O)CC(NS(=O)(=O)c1ccc(Br)s1)c1ccccc1 (stereo unspecified)	99	x	104	85
Cc1ccc(C)c(NC(=O)Cn2c(-c3nonc3N)nc3ccccc32)c1	107	-25	112	87
O=C(Nc1ccc2nc(N3CCOCC3)sc2c1)c1cncn1-c1ccccc1	x	-20	90	98
CCOc1ccccc1NC(=O)c1c(O)c2ccccc2n(CC)c1=O	109	-30	x	x
O=C(CN1CCN(Cc2cccc(Cl)c2)C1=O)NCc1ccc(F)cc1	101	x	95	58
CCOc1ccc(-c2cc(CCCC(=O)Nc3cc(Cl)ccc3O)no2)cc1	102	3	89	80
O=C(NCN1C(=O)C2C3C=CC(C3)C2C1=O)Nc1cccnc1 (stereo unspecified)	104	x	94	86
COc1ccc2nc(C)cc(SCC(=O)c3ccc(Cl)cc3)c2c1	x	0	88	71
CCOc1ccc(CNC(=O)c2ccc(Sc3ccc(C)cc3)c(N)c2)cc1OC	106	x	106	96
O=C(CO)n1c2ccccc2c2ccccc21	101	-10	89	82
CS(=O)(=O)c1ccc(-c2csc(-c3cccs3)n2)cc1	x	-53	96	97
CCSc1ncc(Cl)c(C(=O)Nc2sc3c(c2C(=O)NCCCOC)CCCC3)n1	109	8	101	98
CCOC(=O)Cn1c(=O)oc2cc(S(=O)(=O)Nc3ccccc3F)ccc21	98	-13	101	82
CCc1c(C)nc2ncnn2c1Nc1ccccc1OC	101	-21	x	x
CCOc1ccc(OCC)c(NC(=O)CN(c2ccc(C)cc2)S(=O)(=O)c2c(C)n[nH]c2C)c1	101	-21	99	86
Cc1ccc2c(c1)OC=CC(C(=O)Nc1ccc(C(C)C)cc1)=C2	103	-26	x	x
COc1ccc(-c2noc(COC(=O)/C(=C/c3ccccc3OC)c3ccccc3)n2)c(OC)c1	x	-6	95	92
S=c1nc(-c2cccc(Br)c2)[nH][nH]1	x	-7	48	36
OCn1nc(-c2ccc(Cl)cc2Cl)oc1=S	x	-32	45	24
Cc1cc2c3c(c1)C1C=CCC1C(c1cccc([N+](=O)[O-])c1)N3CC1CC=CC21 (stereo unspecified)	101	-24	x	x
CCC(=O)N1c2ccc(Cl)cc2C2C=CCC2C1c1cccc2ccccc12 (stereo unspecified)	106	-14	x	x
O=C(O)COCC(=O)N1CC(=O)Nc2ccccc21	100	-19	92	81
CCc1ccc(OC(C)C(=O)NCc2csc(-c3ccc(OC)cc3)n2)cc1 (stereo unspecified)	101	-14	x	x
Cn1c(=O)c2c(nc(NCCO)n2Cc2ccc(F)cc2)n(C)c1=O	107	-4	101	91
O=C(c1nc(-c2ccccc2)n(-c2ccccc2)n1)N1CCN(c2ccccc2)CC1	96	-8	x	x
c1ccc(-c2nc(-c3ccc(-c4csnn4)cc3)no2)cc1	97	-1	93	96
CCOC(=O)c1ccc(NC(=O)CCC(=O)N2CC(C)Oc3ccc(C)cc32)cc1 (stereo unspecified)	101	-22	80	93
O=C(CCN1C(=O)/C(=C\c2cccc(Br)c2)SC1=S)Nc1ccc(C(=O)O)cc1	93	-24	x	x
O=C(NCc1cccnc1)/C(=C\c1cccc(Oc2ccccc2)c1)S(=O)(=O)c1ccccc1	97	x	-1.3*	-0.2*
CC(C)n1c(CN(C)Cc2ccccc2)nc2ccccc21	97	-2	116	108
CSc1nc(N)c2ncn([C@@H]3O[C@H](COP(=O)(O)OP(=O)(O)OP(=O)(O)O)[C@H](O)C3O)c2n1 (stereo partly specified)	107	-10	x	x
O=C(Nc1ccc(Cl)cc1)c1ncoc1-c1cccs1	108	-20	103	85
O=C(O)C(c1cccs1)c1cccs1	108	-7	116	86
COc1ccc(N2C(=O)CSC23C(=O)N(C)c2ccccc23)cc1Cl (stereo unspecified)	99	x	109	94
Cc1ccc2c(c1)N(CC(=O)NCc1ccccc1)C(=O)CO2	98	-20	x	x
COc1ccc(-n2c(SCC(=O)NCc3ccc(Cl)cc3)nc3ccsc3c2=O)cc1	101	x	88	74
Cc1ccc2nc(Cl)c3cc(C(=O)N=C4NC(=O)CN4C)sc3c2c1	108	x	90	90
CC(C)(O)C#Cc1ccc(C(=O)NCc2cccs2)s1	x	-15	89	94
Cc1cc(CNS(=O)(=O)c2cccc(Cl)c2)c(C)n1-c1ccc(F)cc1	113	-6	x	x
Cc1ccc(/C=C2\CCCc3ccccc3C2=O)o1	99	1	93	82
CCc1ccc(-c2nn(CC(=O)NC3CCCC3)c3c2cnc2ccc(F)cc23)cc1	95	x	103	90
N#CCCn1ccc2ccccc21	x	28	120	112
N#CC(C#N)=Cc1ccc(/C=C(\C#N)S(=O)(=O)c2ccccn2)cc1	127	-31	93	89
Cn1c(C(=O)O)c(CC(=O)O)c2ccccc21	99&98	-12&-7	100	95
CN(C)c1ccc(/C=N/NC(=O)CNc2ccc(Br)cc2)cc1	105	-3	92	88
Cc1ccc(NC(=O)CSc2ncnc3ccccc23)cc1C	x	-4	75	87
CCN(Cc1ccccc1)C(=O)Cn1c(=O)n(-c2cccc(C)c2)c(=O)c2c1c1cc(C)ccc1n2C	110	x	101	99
O=S1(=O)N=C(N(Cc2ccco2)c2ccc(O)cc2)c2ccccc21	106	2	96	99
OCc1ccnc(Cl)c1	105	-22	104	90
Cc1nc(-c2ccc(C)c(S(=O)(=O)N3CCC(C(=O)NCc4ccc(Cl)cc4)CC3)c2)no1	104	x	107	100

Continued, overlapping the part above by five compounds.
SMILES	GIV Gai3 FP	HCMV NEC inh	Sa growth inh	Sa growth inh second temp
Cc1ccc(NC(=O)CSc2ncnc3ccccc23)cc1C	x	-4	75	87
CCN(Cc1ccccc1)C(=O)Cn1c(=O)n(-c2cccc(C)c2)c(=O)c2c1c1cc(C)ccc1n2C	110	x	101	99
O=S1(=O)N=C(N(Cc2ccco2)c2ccc(O)cc2)c2ccccc21	106	2	96	99
OCc1ccnc(Cl)c1	105	-22	104	90
Cc1nc(-c2ccc(C)c(S(=O)(=O)N3CCC(C(=O)NCc4ccc(Cl)cc4)CC3)c2)no1	104	x	107	100
COc1cc(NC(=O)NC(C)c2c(-n3cccc3)sc3c2CCN(C)C3)cc(OC)c1 (stereo unspecified)	103	x	121	96
Cc1ccc(NC(=O)CCn2nnc(-c3ccc(OCc4ccccc4F)cc3)n2)cc1C	107	x	122	81
Cc1ccccc1NC(=O)C1CCN(C(=O)c2cc3sccc3n2Cc2ccc(F)cc2)CC1	107	x	100	83
Cc1cccc(N2CCN(C(=O)Nc3ccc(F)cc3)CC2C)c1 (stereo unspecified)	100	3	104	97
Fc1ccc(C=Nc2ccc(Nc3ccccc3)cc2)cc1F	x	-29	111	39
COc1cccc(S(=O)(=O)N2CCN(Cc3nc4cccnc4n3-c3ccc(C)cc3)CC2)c1	114	-9	x	x
OC(COc1ccc(F)cc1)(c1ccc(Cl)cc1)c1ccc(Cl)cc1	103	-12	56	90
O=C(NCc1ccccc1)c1cc[n+]([O-])cc1	107	-12&-28	88	82
Cc1cccc(NC(=O)C(NS(=O)(=O)c2cccs2)C(C)C)c1C (stereo unspecified)	110	x	107	87
O=C(CCN1C(=O)/C(=C/c2ccc3c(c2)OCO3)SC1=S)Nc1ccc(C(=O)O)c(O)c1	120	-74	x	x
COc1ccc(Nc2ncc3c(n2)CCN(Cc2sccc2C)C3)c(OC)c1	105	x	112	97
CCOC(=O)c1c(C)[nH]c(NC(=O)Nc2nnc(CC)s2)c1C	99&99	-8	88	86
Cc1ccc(S(=O)(=O)c2[nH]nc3ccc(Cl)cc23)cc1	x	-5	34	42
N=c1c2c(F)cccc2ncn1NC(=O)c1ccncc1	106	-25	89	92
Cc1cc2c(cc1S(=O)(=O)Nc1cccc(C(F)(F)F)c1)OCCN2C	99	x	136	111
Cc1nn(-c2ccc(N3CCOCC3)nn2)c(C)c1CCC(=O)NCc1ccc(F)cc1	108	x	97	99
CCC(=O)N1CCCc2cc(S(=O)(=O)N3CCC(C)CC3)ccc21	93	-8	x	x
Cc1ccc2ccccc2c1COC(=O)c1nonc1N	101	-20	86	102
COc1ccccc1/C=C/C(=O)N1CCC(C(N)=O)CC1	99	-51	106	89
Cc1cc(C(=O)N2CCOCC2)no1	104	-8	x	x
CCc1ccccc1NC(=O)CCC(=O)N1CC(C)Oc2ccc(C)cc21 (stereo unspecified)	96	-7	108	96
Cn1cc(S(=O)(=O)N2CCCCCC2)cc1C(=O)Nc1ccc(Cl)c(C(F)(F)F)c1	105	x	115	91
COc1cc(-c2nnc(SCc3c(F)cccc3Cl)o2)cc(OC)c1OC	104	-14	x	x
Cc1cc(NC(=O)c2cccnc2)ccc1NC(=O)c1ccco1	96	13	111	84
CC(C)(CO)NCc1ccc(F)cc1	97	-6	101	85
O=C(NCCc1ccc(Cl)cc1)c1ccc2c(c1)N(Cc1ccc(F)cc1Cl)C(=O)CS2	103	-11	94	85
Cc1oc2ncn(C)c(=O)c2c1C(=O)OCc1ccc(C#N)cc1	x	-15	73	85
COc1ccccc1C1C(C(=O)Nc2ccccc2F)=C(C)NC2=C1C(=O)CCC2 (stereo unspecified)	116	x	95	79
CCOC(=O)N1CCN(C(=O)C2COc3ccccc3O2)CC1 (stereo unspecified)	104	x	97	83
O=C(CN1C(=O)COc2ccc(C(=O)N3CCCC3)cc21)Nc1ccccc1Cl	99	-6	x	x
O=C(CCCC1CCCCC1)Nc1ccncc1	x	-14	40	11
O=C(Cn1c(=O)oc2cc(S(=O)(=O)NCc3ccccc3)ccc21)Nc1ccc(F)cc1	103	x	98	77
CCc1ccc(OCC(=O)Nc2ccc3c(c2)COC3=O)cc1	x	-10	84	55
CCCN1CCN(C(=O)Cn2ncc3c4ccccc4n(Cc4cccc(Cl)c4)c3c2=O)CC1	171	-24	111	79
CC1(C)CC2(CCO1)NNC(=S)NN2	103	-13	104	74
Cc1cccc(C(=O)NCC(c2ccc3c(c2)OCO3)N2CCOCC2)c1 (stereo unspecified)	96	x	101	91

Laid out differently: results already given
> O=C(NCCc1ccc(Cl)cc1)c1ccc2c(c1)N(Cc1ccc(F)cc1Cl)C(=O)CS2
  GIV Gai3 FP: 103; HCMV NEC inh: -11; Sa growth inh: 94; Sa growth inh second temp: 85
> Cc1cccc(C(=O)NCC(c2ccc3c(c2)OCO3)N2CCOCC2)c1 (stereo unspecified)
  GIV Gai3 FP: 96; HCMV NEC inh: x; Sa growth inh: 101; Sa growth inh second temp: 91

(cont.)
SMILES	GIV Gai3 FP	HCMV NEC inh	Sa growth inh	Sa growth inh second temp
O=S(=O)(c1ccc(F)cc1)N1C=CC(C(F)(F)F)=NCC1	106	-10	107	90
O=C(Nc1ccc2c(c1)OCCO2)c1cccc(-n2cnnc2)c1	101	-9	94	95
CCCn1c(C)cc(C(=O)CSc2nc(O)cc(=O)n2C2CCCC2)c1C	x	-5	80	76
COc1cccc(CN(Cc2ccco2)S(=O)(=O)c2ccccc2)c1	x	-22	91	74
N#Cc1c(-c2ccccc2)nc2n(c1=O)CCCS2	100	-33	100	83
Cc1ccc(C2CCN(C(=S)NCC3CCCO3)C2)cc1 (stereo unspecified)	98	x	87	82
CCOC(=O)c1sc2nc(C)nc(N3CCCC3)c2c1C	100	-24	x	x
COc1ccc(C2CC(=O)N(c3ccc(C)c(F)c3)C(=O)C2)cc1OC	102	-20	x	x
CCc1ccccc1NC(=O)Nc1cc(C)c2nc(NC(C)=O)sc2c1	101	-10	x	x
CCCC(C(=O)NCc1cccc(Cl)c1)N1Cc2ccccc2C1=O (stereo unspecified)	98	x	99	88
Cc1cccc(C)c1Nc1c(-c2ccccn2)nc2ccc(Cl)cn12	101	6	89	94
CCOC(=O)c1cc(-c2ccc(S(=O)(=O)N3CCCCC3C)s2)on1 (stereo unspecified)	102	-53	103	98
COC(=O)CCCNc1ccc(C(F)(F)F)cc1N	100	-16	x	x
O=C1C2C3C=CC(C3)C2C(=O)N1c1cccc(N2C(=O)C3C4C=CC(C4)C3C2=O)c1 (stereo unspecified)	x	4	81	91
